MT1-MMP act inh: blockers of MT1-MMP proenzyme processing, primary screen, HT1080 RFP-PRO-GFP cells, GFP/RFP fluorescence; Matrix metalloproteinase-14 (Homo sapiens), P50281; GFP/RFP ratio fluorescence, overnight; percent of plate control window, DMSO zero; GFP/RFP ratio change, % at 20 µM; 360,000 tested, 0.061% active; AID 651647, 2012;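 active = GFP/RFP ratio change of at least 30% with cell ATP level not reduced by more than half and red fluorescence within 50% of control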; note: strong numbers were not always called active
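Read-out: GFP/RFP fluorescence ratio; Test system: RFP-PRO-GFP reporter HT1080 cells; Compound dosing: single-point 20 µM compound, 1% DMSO; Times: overnight compound exposure at 37 °C.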
eIF4H FP inh: human eIF4H binding inhibitors, primary screen, translation initiation inhibitor project, biochemical, uHTS, fluorescence polarization; Eukaryotic translation initiation factor 4H (Homo sapiens), Q15056; eIF4H fluorescence polarization binding assay; inhibition, % at 35 µM; 290,000 tested, 0.94% active;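 active = 50% or more with normal probe brightness, or confirmed in later tests; inconclusive = above 50% with abnormal brightness, or retests that disagree; inactive = below 50% or failed in later tests; about a fifth of its hits are not listed in these tables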;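 note: calls also rest on retests at 20 µM and on dose response follow-up; 0% = protein and probe with vehicle and 100% = probe without protein; strong numbers were not always called active; many hits fall short of the cut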
CSC inhib: cancer stem cell viability inhibitors, primary screen, luminescence | AID 2717, 2010 | cancer stem cell-like cells viability | inhibition, % at 7.5 µM | 300,000 tested, 1.1% active;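 active = mean at 75% or more and at least half the replicates too; inconclusive = mean and replicates disagree; tested in HMLE shEcad cells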;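 note: 0% = median of negative and 100% = median of positive control wells; the first replicate is given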
Rce1 inh: yeast Rce1p protease inhibitors, primary screen, biochemical, fluorescence, cell-free homogeneous; yeast membranes, quenched prenylated peptide cleavage fluorescence; calls only; 290,000 tested, 0.27% active;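 active = fall in fluorescence gain of 50% or more versus controls, with final raw signal at or below 3038400; inconclusive = same 50% fall but final raw signal above 3038400; inactive = fall in fluorescence gain under 50%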;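 note: plate controls were neutral control wells for no effect and wells lacking membranes for full effect; tested at 10 µM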
Target sequence (Q03530 whole entry, looked up): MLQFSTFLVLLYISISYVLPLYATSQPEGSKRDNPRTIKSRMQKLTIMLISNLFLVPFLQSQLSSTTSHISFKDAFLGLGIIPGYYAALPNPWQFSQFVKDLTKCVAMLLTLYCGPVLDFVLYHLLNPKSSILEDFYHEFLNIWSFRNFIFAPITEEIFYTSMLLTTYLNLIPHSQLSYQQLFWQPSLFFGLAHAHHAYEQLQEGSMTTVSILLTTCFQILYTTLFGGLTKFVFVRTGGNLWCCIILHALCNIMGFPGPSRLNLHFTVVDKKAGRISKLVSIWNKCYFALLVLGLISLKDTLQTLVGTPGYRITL
PABP FP inh: PABP poly(A) RNA binding inhibitors, primary screen, biochemical, fluorescence polarization, uHTS; 290,000 tested, 1% active; Polyadenylate-binding protein 1 (Homo sapiens), P11940; inhibition, % at 35 µM;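 active = 50% or more with normal probe brightness, or confirmed in later tests; inconclusive = above 50% with abnormal brightness, or retests that disagree; inactive = below 50% or failed in later tests; about a fifth of its hits are not listed in these tables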;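 note: calls also rest on retests at 20 µM and on dose response follow-up; controls were probe without protein and protein plus probe with vehicle; some compounds called inactive have numbers as strong as hits; many hits fall short of the cut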
UUG fidelity: modulators of yeast start codon fidelity, primary screen, whole organism, S. cerevisiae, single point, plate reader; activity score, % at 18.7 µM; 350,000 tested, 0.13% active; AID 602363, 2012; S. cerevisiae UUG-firefly luciferase reporter, luminescence/redox ratio;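 active = replicate mean at a twofold rise or more, about +100% in these data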;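 note: firefly luciferase made from a UUG start codon reports start codon fidelity; reporter light over untreated wells divided by growth signal over untreated wells; some hits fall short of that in this replicate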
Env fusion inh: inhibitors of HIV-1 Env-driven cell-cell fusion, primary screen, HeLa-JRFL effector, CEM21 target cells, luciferase. AID 651610, 2012. inhibition, % at 12.3 µM. 360,000 tested, 1.1% active;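 active = mean replicate inhibition score of at least 50 and every replicate individually at or above 50; inconclusive = only one of the two criteria met; inactive = mean below 50 and not all replicates reaching 50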;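 note: 0% = plate neutral controls and 100% = maraviroc near 300 nM; one replicate is shown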
MT1-MMP act inh RFP: recorded beside MT1-MMP act inh, whose call it bears; RFP signal change, %; measured here: RFP expression control read;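 0 = vehicle wells; hits needed this value within 50% of zero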
* = called active by the depositor; i = inactive; ? = inconclusive; / = not tested or not shown.

canonical_smiles,MT1-MMP act inh,MT1-MMP act inh RFP,eIF4H FP inh,CSC inhib,Rce1 inh,PABP FP inh,UUG fidelity,Env fusion inh
CC(=O)OC(COc1ccccc1)Cn1cnc2ccccc21 (configuration not stated),5,1,0,-1,i,-13,-6,2
Fc1ccc(OCCCCN2CCOCC2)cc1,3,5,-14,-3,i,-3,/,13
Cc1ccc(NS(=O)(=O)c2cc(C(=O)N3CCc4ccccc4C3)ccc2Cl)cc1,-2,-2,2,47,/,-7,-17,/
Cn1cccc1Cc1nnc(SCC(=O)N2CCOCC2)n1-c1ccc(F)cc1,-2,-1,0,-1,i,-7,3,6
CCOC(=O)c1sc2nc(-c3cccnc3)ccc2c1N,-4,-5,-8,0,i,9,/,-301
Cc1nc(-c2ccccc2)sc1C(N)=O,1,3,8,/,i,-2,-4,/
C/C(=N/NC(=O)CNC(=O)c1cccnc1)c1ccc(Cl)c(Cl)c1,-1,5,5,-9,i,-2,-4,-1
CSc1nsc(SC)c1NC(=O)Nc1ccccc1C,-1,-1,2,0,i,-3,/,-7
COc1ccccc1Nc1nc2ccc(C)cc2cc1C#N,-22,2,-1,0,i,-5,-6,-33
O=C(NCC1COc2ccccc2O1)Nc1ccccc1F (configuration not stated),2,-5,-14,-9,i,-8,30,-103
CN(C(=O)c1ccccc1NC(=O)C(F)(F)F)c1ccccc1,10,1,4,-5,i,6,-5,2
CN1CCCN(Cc2ccccc2C(F)(F)F)CC1,-3,3,6,10,i,0,-16,-66
CCCN1CCn2c3c(c4cc(Br)ccc42)CCCC31 (configuration not stated),-2,-3,-2,/,i,9,-16,4
O=C(N/N=C/c1cccnc1)c1cccc(Cl)c1,-4,-1,-4,-8,i,9,-11,-6
Cc1ccc(C(=O)N/C(=C\c2cccs2)c2nc3ccccc3[nH]2)cc1,5,0,-12,-10,i,-5,/,/
COc1ccc2c(c1)CCc1c-2n[nH]c1C(=O)O,-3,7,-18,-5,/,1,-11,/
Cc1snc(S(=O)(=O)Cc2ccccc2Cl)c1C#N,-1,-1,-2,-3,i,-3,-5,-78
COC(=O)CN(c1ccc(OC)c(OC)c1)S(C)(=O)=O,-1,0,-4,9,i,-12,-11,-5
Cc1cc(C)n(/C(=C\N(C)C)C(=O)c2cccc([N+](=O)[O-])c2)n1,1,5,1,2,i,11,-6,-10
CCCOc1ccc(N2C(=O)CC(N3CCN(CCN=CC4=C(O)CC(C)(C)CC4=O)CC3)C2=O)cc1 (configuration not stated),2,3,-1,6,i,-8,/,2
COc1ccc2sc(/C=C/c3ccccc3O)[n+](C)c2c1,34*,31*,?,/,/,-2,/,-5
Cc1nn(-c2ncccn2)c2c1C(=O)CC(C)(C)C2Br (configuration not stated),-8,-2,/,/,/,/,-7,-25
CCCN1CCN(C(=O)CCS(=O)(=O)c2cc3c(cc2Cl)NC(=O)CO3)CC1,-4,-4,-4,-8,i,-2,-16,-80
N#C/C(=C\c1ccc(N2CCOCC2)o1)C(=O)Nc1ccc(O)cc1,-128,3,?,4,/,?,12,2
O=C(NNc1c2ccccc2nc2ccccc12)c1ccccc1O,32*,-3.8*,-3,?,/,-1,-9,27
COc1ccc(OCc2nnc(SCC(=O)N3CCCC3)o2)cc1,-3,1,-2,-6,i,17,-4,-1
COc1ccc(CNC(=O)C2CC(c3cc(C(F)(F)F)cc(C(F)(F)F)c3)=NO2)cc1 (configuration not stated),-1,-4,-9,68,i,10,-6,-47
O=C(COC(=O)COc1ccc(Cl)cc1)NCCCc1ccccc1,-5,2,/,1,/,/,-10,/
O=C(NC(=S)N1CCc2ccccc21)c1ccco1,2,3,-2,-7,/,-10,/,12
Cc1cccc(NC(=O)CN2C(=O)C3CC=CCC3C2=O)c1C (configuration not stated),-5,4,/,/,/,/,7,22
Cc1ccc(C)c(NS(=O)(=O)c2c(C)[nH]c(C)c2C(=O)N2CCCCC2)c1,-3,2,-7,16,i,1,10,20
CCSc1nc2c(c(=O)[nH]c(=O)n2C)n1CC(O)COc1ccccc1C (configuration not stated),2,-3,-8,-5,i,6,20,-25
Cc1[nH]nc(SCC(=O)NCc2ccc(F)cc2)c1[N+](=O)[O-],-1,1,-4,5,i,-4,-10,-68
COc1cc(Cl)c([C@@H]2C[C@H]3CN(c4ccccc4)C(=O)[C@]34CCCN24)cc1OC,2,1,-3,-16,/,2,/,12
O=C(N/N=C/c1cccc(C(F)(F)F)c1)c1ccccc1O,0,-7,3,/,i,-21,/,-19
O=C(Cc1ccc(Cl)cc1)NC1CCCCCC1,-1,-2,1,-20,i,-2,11,-39
Cc1cc(-c2ccc(C)c(S(=O)(=O)NCCC(C)N3CCCCCC3)c2)on1 (configuration not stated),-2,3,0,10,i,-5,-17,-11
O=C(N/N=C/c1ccc(OCc2ccccc2)cc1)c1cc[n+](Cc2ccccc2)cc1,2,0,-4,-8,i,-2,-14,9
Nc1nc(-c2ccc(Cl)cc2)cn1N,-1,4,-4,-5,i,-8,-35,/
Cc1ccc2nc(NCc3ccccc3)c(C=O)c(=O)n2c1,2,-2,-1,-10,i,-5,-16,-22
CCNC(=O)/C(C#N)=C/c1c(N2CCCCCC2)nc2ccccn2c1=O,-3,-1,-2,-23,i,1,-3,1
CCOC(=O)C1(Cc2ccc(OC)cc2)CCN(C(=O)CCc2cnccn2)CC1,2,2,1,7,i,8,22,-6
Cc1ccc(NC(=O)Cc2nnc(SCC(=O)c3ccc(Br)cc3)n2C)cc1Cl,/,/,8,-7,i,-3,/,/
CCOC(=O)N1CCC(N2Cc3cccc(C(=O)NCc4ccc5c(c4)OCO5)c3C2=O)CC1,2,-4,37,-9,i,11,-3,16
CC(=O)c1ccc(N2CCN(c3ccc(C(N)=O)cc3[N+](=O)[O-])CC2)cc1,3,-7,2,-7,i,-3,/,27
CC(C)NC(=O)c1ccccc1S(=O)(=O)c1ccccc1C#N,-1,4,9,-5,i,-7,-20,/
Cc1ccc(NC(=O)Cn2cc3c(n2)CCC(C)C3)cc1 (configuration not stated),-2,0,-2,-10,i,-15,-31,-2
CCOC(=O)c1ccc(NC(=O)COc2ccccc2OC)cc1,-1,-1,-18,-14,i,-3,-13,/
CC(C)(C)C(=O)C(CO)(Oc1ccc(Cl)cc1)n1cncn1 (configuration not stated),6,-2,-9,7,i,-10,-5,/
O=C(O)CCC(=O)Nc1ccccc1C(=O)NCc1ccccc1,1,5,-7,-8,i,-1,-19,/

Some of these compounds in order of their number in UUG fidelity, falling.
compound,UUG fidelity
Cc1ccc(C)c(NS(=O)(=O)c2c(C)[nH]c(C)c2C(=O)N2CCCCC2)c1,10
O=C(N/N=C/c1ccc(OCc2ccccc2)cc1)c1cc[n+](Cc2ccccc2)cc1,-14
Cc1ccc(NC(=O)Cn2cc3c(n2)CCC(C)C3)cc1 (configuration not stated),-31

The list goes on:
canonical_smiles,MT1-MMP act inh,MT1-MMP act inh RFP,eIF4H FP inh,CSC inhib,Rce1 inh,PABP FP inh,UUG fidelity,Env fusion inh
COc1cc(C2NC(=O)c3ccccc3O2)cc(OC)c1OC (configuration not stated),-3,1,6,-8,i,7,-11,67
CC(=O)N=c1sc(S(N)(=O)=O)nn1C,1,-2,-6,-5,i,-8,-15,-78
NC(=O)c1cc([N+](=O)[O-])ccc1N1CCCCC1,3,2,2,-8,i,11,-6,1
COC(=O)c1sc2ccccc2c1NC(=O)c1ccc(S(=O)(=O)N2CCCCC2)cc1,-1,4,4,-4,i,6,/,0
Cc1ccsc1/C=N/NS(=O)(=O)c1ccc([N+](=O)[O-])cc1,1,0,-5,-7,i,-16,/,/
CCCCC(=O)Nc1ccc(S(=O)(=O)Nc2nccc(C)n2)cc1,1,1,-8,-12,i,8,/,-5
Cc1cccnc1C(c1ccc(F)cc1)N(C)C(=O)C1CCN(CCCOc2ccc(F)cc2)CC1 (configuration not stated),3,6,/,/,/,/,-8,-9
Clc1nnc2ccc(-c3ccccc3)nn12,2,4,1,11,/,13,-8,-60
O=C(OCCN1C(=O)c2cccc3c(N4CCOCC4)ccc(c23)C1=O)c1ccc(Cl)cc1,-145,-11,?,7,i,-5,/,-7
CCOC(=O)C1=C(COC(=O)c2cccnc2Cl)NC(=O)NC1C (configuration not stated),2,5,/,-6,i,/,/,-2
Cc1ccn2c(=O)c(C(=O)NC3CCCCC3C)c(O)nc2c1 (configuration not stated),2,-4,/,21,i,/,-12,1
Cc1ccc2oc(-c3cccc(NC(=O)C4CCCO4)c3)nc2c1 (configuration not stated),4,2,16,2,i,-5,-11,/
C/C(=C(\C#N)C(=O)NC1CCCCC1)N(C)C,-2,4,-2,9,/,-1,-16,/
CC1(C)OC(=O)C(=CNNc2c(Cl)cc(Cl)cc2Cl)C(=O)O1,2,-3,-7,-7,i,9,-15,-13
Cc1nc(SCc2ccc(Br)cc2)[nH]c(=O)c1C,8,-4,2,45,/,-6,20,-141

Structural class, the compounds so far with fluorine (9)
canonical_smiles,MT1-MMP act inh,MT1-MMP act inh RFP,eIF4H FP inh,CSC inhib,Rce1 inh,PABP FP inh,UUG fidelity,Env fusion inh
Fc1ccc(OCCCCN2CCOCC2)cc1,3,5,-14,-3,i,-3,/,13
Cn1cccc1Cc1nnc(SCC(=O)N2CCOCC2)n1-c1ccc(F)cc1,-2,-1,0,-1,i,-7,3,6
O=C(NCC1COc2ccccc2O1)Nc1ccccc1F (configuration not stated),2,-5,-14,-9,i,-8,30,-103
CN(C(=O)c1ccccc1NC(=O)C(F)(F)F)c1ccccc1,10,1,4,-5,i,6,-5,2
CN1CCCN(Cc2ccccc2C(F)(F)F)CC1,-3,3,6,10,i,0,-16,-66
COc1ccc(CNC(=O)C2CC(c3cc(C(F)(F)F)cc(C(F)(F)F)c3)=NO2)cc1 (configuration not stated),-1,-4,-9,68,i,10,-6,-47
Cc1[nH]nc(SCC(=O)NCc2ccc(F)cc2)c1[N+](=O)[O-],-1,1,-4,5,i,-4,-10,-68
O=C(N/N=C/c1cccc(C(F)(F)F)c1)c1ccccc1O,0,-7,3,/,i,-21,/,-19
Cc1cccnc1C(c1ccc(F)cc1)N(C)C(=O)C1CCN(CCCOc2ccc(F)cc2)CC1 (configuration not stated),3,6,/,/,/,/,-8,-9

Only part of the results is shown, so the mix of outcomes need not match the whole.
